HNF4A DNA FP: change in binding of human HNF4 alpha to DNA. P41235. HNF4a-FITC DNA binding, fluorescence polarization, 1 h. activity change, % at 10 µM. 360,000 compounds, 0.3% hits. AID 1224865; in the data active = activity change above about 30%, passing the limit was not always enough;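 note: controls were the assay level and a saturating level of protein; the project sought stronger binding though the title names inhibitors; some compounds called inactive have numbers as strong as hits; positive values seem to mean higher polarization but the record does not say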
ALR inh: blocks human ALR sulfhydryl oxidase activity. 290,000 compounds, 3.8% hits. purified ALR, DTT oxidation, H2O2 HRP-luminol luminescence. inhibition, % (no concentration beside the values);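 active = mean and each replicate at 75% or more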;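 note: stock transfer was 7.5 nL into about 7.5 µL; 0% = neutral wells and 100% = wells with inactivated enzyme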
B2AR ag: activates human beta-2 adrenergic receptor causing internalization | P07550 | 340,000 compounds, 0.43% hits | Am2.2-beta2AR cells, FAP receptor internalization, flow cytometry; reference of the scale not given here | response, % (no concentration beside the values);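 active = response above a set limit, near 3 SD of response in nonfluorescent compounds, cut at about 42% in these data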;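 note: stock transfer was 100 nL into about 11 µL; a reference agonist was the positive control; negative values mostly stem from fluorescent compounds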
UCH37 DUB inh: inhibitors of human deubiquitinating enzyme UCH37 | Q9Y5K5 | purified proteasome/UCH37, Ub-AMC cleavage fluorescence | inhibition, % (no concentration beside the values) | 330,000 compounds, 0.33% hits | AID 588478;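 active = mean of two replicates above 20%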;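 note: 0% = compound-free wells with enzyme and 100% = wells lacking proteasome; stock transfer was 100 nL into about 20 µL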
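Schedule: 30 min plus 25 min, room temperature / Material: human UCH37 within purified proteasomes / Technique: AMC fluorescence intensity at 355/460 nm / Buffer or medium: pH 7.4 Tris-HCl (50 mM) with ovalbumin, ATP-MgCl2, DTT / Controls: wells without proteasome as full block, compound-free enzyme plus substrate as uninhibited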
LANA-H2A inh: blocks KSHV LANA binding to histone H2A/H2B; cell-free LANA-H2A/H2B peptide, fluorescence polarization; 320,000 compounds, 0.6% hits; inhibition, % (no concentration beside the values); in the data active = inhibition mostly above about 10%, no sharp cut-off; inactive = mostly below about 6.7%;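 note: stock transfer was 7.5 nL into about 10 µL; 0% = median of vehicle wells and 100% = median of positive control wells; one replicate is shown; the record names a cut of 25% in any replicate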
Target sequence (Q9QR71 whole entry, looked up): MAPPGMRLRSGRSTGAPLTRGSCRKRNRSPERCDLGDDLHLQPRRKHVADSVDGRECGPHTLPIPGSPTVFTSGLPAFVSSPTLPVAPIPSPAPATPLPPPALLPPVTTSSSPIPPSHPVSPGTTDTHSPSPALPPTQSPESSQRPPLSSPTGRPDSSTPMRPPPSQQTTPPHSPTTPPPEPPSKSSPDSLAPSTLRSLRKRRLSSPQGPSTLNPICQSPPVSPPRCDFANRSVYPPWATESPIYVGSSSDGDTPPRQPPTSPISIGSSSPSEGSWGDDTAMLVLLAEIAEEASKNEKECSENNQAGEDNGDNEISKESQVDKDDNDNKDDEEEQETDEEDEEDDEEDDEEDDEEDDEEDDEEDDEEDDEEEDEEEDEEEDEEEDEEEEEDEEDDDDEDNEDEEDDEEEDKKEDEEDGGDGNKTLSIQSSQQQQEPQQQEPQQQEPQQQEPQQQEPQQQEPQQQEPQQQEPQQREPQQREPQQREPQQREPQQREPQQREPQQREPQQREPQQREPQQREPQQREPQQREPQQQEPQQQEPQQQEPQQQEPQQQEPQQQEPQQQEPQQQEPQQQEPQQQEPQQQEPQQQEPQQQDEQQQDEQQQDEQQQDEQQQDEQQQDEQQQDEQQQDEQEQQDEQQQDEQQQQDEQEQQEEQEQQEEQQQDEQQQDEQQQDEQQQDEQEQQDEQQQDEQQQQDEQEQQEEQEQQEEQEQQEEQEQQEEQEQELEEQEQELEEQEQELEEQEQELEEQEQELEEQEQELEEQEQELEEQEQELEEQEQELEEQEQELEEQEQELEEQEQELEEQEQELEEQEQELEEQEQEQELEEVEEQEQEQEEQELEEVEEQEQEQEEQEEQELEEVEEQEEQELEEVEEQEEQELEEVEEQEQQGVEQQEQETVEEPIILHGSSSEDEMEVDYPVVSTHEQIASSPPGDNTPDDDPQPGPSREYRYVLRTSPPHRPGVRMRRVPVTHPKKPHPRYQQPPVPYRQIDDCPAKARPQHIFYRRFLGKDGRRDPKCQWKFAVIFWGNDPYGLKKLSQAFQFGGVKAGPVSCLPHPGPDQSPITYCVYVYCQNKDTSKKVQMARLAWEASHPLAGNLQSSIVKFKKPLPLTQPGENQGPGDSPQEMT
FGF22 binding: binders of recombinant human FGF22 by thermal shift; calls only at 9.99 µM; Q9HCT0; SYPRO orange fluorescence; percent of sucrose octasulfate shift, DMSO zero; 340,000 compounds, 1.5% hits;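 active = melting point raised past a set limit in the mean and every replicate; three in four hits are not shown here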
E coli growth: E. coli growth inhibition. Escherichia coli growth, OD600, 23 h; hits give low values. AID 1053175. 330,000 compounds, 0.21% hits. OD600 absorbance (no concentration beside the values);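 active = OD600 absorbance below the run mean of sample wells minus 3.6 SD, in any replicate, cut at about 0.56 in these data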;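 note: stock transfer was 300 nL into about 60 µL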
* marks the source's active call; other numbers are inactive results; i = inactive; x = no result given. The list is partial; count on the stated rates, not on these rows.

SMILES	HNF4A DNA FP	ALR inh	B2AR ag	UCH37 DUB inh	LANA-H2A inh	FGF22 binding	E coli growth
Cc1cc(F)ccc1S(=O)(=O)Nc1ncnc2scc(-c3ccc(F)cc3)c12	-3.0	-42	31	-0.3	0.3	x	0.68
O=C(OCC(=O)N(C1CCCCC1)C1CCCCC1)c1ccco1	1.4	-2	0	4.6	-3.4	x	0.71
Cc1cccn2c1nc(=S)n2C(=O)c1ccco1	5.3	x	-8	0.4	11	x	0.67
CCOc1ccc(C(C(=O)NCC2CCCO2)N(Cc2ccccc2)C(=O)c2snc(C(N)=O)c2N)cc1 (centres undefined)	0.5	2	-4	-51	-2.0	i	0.67
CCc1ccc(CC2S/C(=C(\C#N)C(C)=O)NC2=O)cc1 (centres undefined)	-0.7	62	13	7.7	4.1	x	0.67
Cc1cc(C)cc(OCc2nc(-c3cccnc3)no2)c1	3.8	11	-1	3.3	3.2	i	0.7
CC(C)NC(=O)NC(=O)CSc1ccccc1F	1.0	-1	2	5.2	-2.9	x	0.7
O=C(Cn1c(=O)cnc2ccccc21)Nc1ccccc1N1CCOCC1	2.7	-9	-10	0.9	1.8	i	0.69
O=C(CSc1nnc2c3ccccc3c3ccccc3c2n1)Nc1ccccc1F	5.5	-2	0	x	5.0	x	x
CC(C)Cc1nnc(NC(=O)CCC(=O)Nc2ccccc2)s1	-3.2	0	3	1.4	1.6	i	0.65
COc1cc(C2C(C#N)=C(N)N(N(C)C)C3=C2C(=O)CCC3)ccc1O (centres undefined)	1.3	66	10	5.6	1.7	i	0.67
CCC(Sc1ccc2nnc(CCNS(=O)(=O)c3ccc(OC)cc3)n2n1)C(=O)OC (centres undefined)	-2.3	0	10	-0.3	-6.0	i	0.69
CCOC(=O)Cn1cc([N+](=O)[O-])c(OC)n1	0.8	-11	-2	0.2	1.0	x	0.7
c1ccc(CNc2ccc(N3CCOCC3)cc2)cc1	-2.1	99*	-1	-1.6	17*	i	0.68
CCOC(=O)CNC(=O)C(CC(N)=O)NC(=O)OC(C)(C)C (centres undefined)	1.5	10	-1	-1.9	-4.5	i	0.65
N#Cc1cc2ccccc2nc1SCC(=O)NC1CC1	-0.3	x	-9	1.9	-2.6	i	0.64
COCCCn1c(-c2cccc(Cl)c2)nc2c1c(=O)[nH]c(=O)n2Cc1ccccc1	0.6	x	-3	-78	-3.7	i	0.71
O=S(=O)(Nc1ccc(N2CCCCC2)cc1)c1ccccc1	1.5	61	0	3.4	-3.9	x	0.68
C/C(Cc1ccccc1)=N\NC(=O)C1CCCCC1	4.2	-1	3	x	-1.0	x	x
CC(C)C[C@H]1CN=C(Nc2ccccc2)N1CCC(C)c1ccccc1 (some centres undefined)	6.3	x	0	1.1	-5.8	i	0.7
COc1cc(C(=O)Nc2cc(C(F)(F)F)ccc2-n2cncn2)cc(OC)c1OC	5.7	-10	-8	2.0	-1.3	i	0.68
COc1cc(CC(=O)N(C)CC(=O)Nc2cc(C)ccc2C)cc(OC)c1OC	3.6	-4	-3	0.7	-3.7	i	0.64
CN(CCOc1cccc(C(F)(F)F)c1)Cc1ccccc1	-0.2	-2	6	4.3	-3.8	i	0.67
CC(c1ccccc1)C1CC(=O)N(CC(=O)O)C1=O (centres undefined)	-3.3	-18	2	0.6	-0.9	i	0.68
COc1cccc(C(=O)NC23CC4CC(CC(C4)C2)C3)c1	-2.7	-1	1	5.6	-3.3	i	0.68
COc1cc(-c2nnc(-c3cccs3)o2)cc(OC)c1OC	2.2	-2	-15	-84	4.9	x	x
O=C(Cc1ccc(F)cc1)Nc1ccc(F)c([N+](=O)[O-])c1	0.8	0	0	-1.3	4.9	x	0.72
Cc1ccc(NC(=O)[C@@H]2CCCN2S(=O)(=O)c2ccccc2F)cc1	3.4	0	-8	2.1	-0.8	i	0.73
C=CCn1c(SCC(=O)Nc2ccc3c(c2)OCCO3)nnc1-c1ccco1	1.4	x	-13	-0.1	-3.8	i	0.65
CCOC(=O)C1=C(C)NC(=O)NC1/C=C/c1ccccc1OC (centres undefined)	2.7	26	-2	1.6	2.9	i	0.71
CC(/C=C/c1ccc(OCc2ccccc2)cc1)=N\O	1.3	-18	10	x	1.0	x	x
COc1ccccc1NC(=O)Cn1c(=O)n(CCc2c[nH]c3ccccc23)c(=O)c2cccnc21	5.1	3	8	1.3	-1.8	i	0.76
C/C(=N/NC(=O)c1ccc(Cl)s1)c1cccnc1	-2.8	2	-9	x	9.3	i	x
CNC(=O)c1c(NC(=O)C2=COCCO2)sc2c1CCN(C(=O)OC)C2	-1.2	17	-7	9.0	7.1	i	0.7
CSc1nnc(N2C(=O)C(O)=C(C(=O)c3ccco3)C2c2cccc(Cl)c2)s1 (centres undefined)	-30	87*	9	5.4	8.0	i	0.66
CCOC(=O)c1ccc(NC(=O)NCc2ccccc2OC)cc1	-1.5	0	0	3.4	-3.6	i	0.67
COc1ccc(Cl)cc1Nc1nc(-c2cccnc2)cs1	4.0	-11	0	3.5	-1.5	i	0.69
COc1ccccc1C(=O)NC(CCSC)C(=O)NNC(=O)c1ccccc1C (centres undefined)	-0.3	0	1	0.0	0.1	i	0.61
Cc1nc(N2CCOCC2)nc(N2CCN(c3ccccc3)CC2)c1[N+](=O)[O-]	5.5	1	1	2.7	-5.3	x	0.7
Cc1cc(C)nc(NC(=NCCc2c[nH]c3ccccc23)NC(=O)Nc2cccc([N+](=O)[O-])c2)n1	-0.6	0	-6	0.3	-2.6	i	0.67
Cc1c(Cl)c(-c2n[nH]c(=S)n2-c2ccccc2)nn1C	-0.4	92*	2	1.6	6.1	x	x
CCN(CC)c1ccc(NC(=O)COC(=O)CSc2ccc(Br)cc2C)cc1	-0.1	99*	-7	1.6	3.9	i	0.69
COc1ccc(Cl)cc1NC(=O)CN(C)C(=O)c1ccc(N2CCCCC2)c([N+](=O)[O-])c1	0.9	5	15	5.2	5.8	i	0.69
Cc1cc2ncn(CS(C)(=O)=O)c2cc1C	0.2	-7	0	-0.3	3.1	i	0.66
COc1ccc(S(=O)(=O)Nc2ccc(-c3ccc4nncn4n3)cc2)c(OC)c1	1.8	-3	-1	2.1	-1.5	i	0.66
CCCCc1nc2ccccc2c(NC(=O)CNC(C)(C)C)c1CCC	2.3	-9	-7	0.3	0.7	x	0.73
O=C(N/N=C/c1ccccc1O)C(=O)N1CCCCCC1	-0.8	8	3	x	1.8	i	x
COc1ccccc1Cn1c(=S)[nH]c2cc(C(=O)NCc3cccnc3)ccc2c1=O	5.1	x	7	3.6	x	i	0.69
O=C(N/N=C/c1cccs1)c1[nH]ncc1Br	1.6	-9	-7	x	-0.5	i	x
O=C(COc1coc(CN2CCN(c3ccc(F)cc3)CC2)cc1=O)NCC1CCCO1 (centres undefined)	1.4	58	-1	2.9	-2.6	i	0.63
COc1cc(/C=N/NC(=Nc2ccc(C)cc2)c2nc3ccccc3s2)ccc1O	-0.8	68	-23	x	-7.1	x	x
COc1cc2c(cc1OC)CN(C(=O)c1cc(S(=O)(=O)N3CCOCC3)ccc1Cl)CC2	1.2	-23	7	0.2	-1.4	x	0.71
O=C(O)c1cccc(NC(=O)c2ccc3c(c2)C(=O)N(Cc2ccco2)C3=O)c1	-9.5	3	6	x	0.0	x	x
CCOC(CC(=O)NNC(=O)c1c(-c2ccccc2Cl)noc1C)OCC	5.3	-12	-3	2.6	-5.4	i	0.63
COc1cc(C(=O)Nc2cccc(C)c2C)c(Br)c(OC)c1OC	-3.7	-1	-11	1.6	-2.1	i	0.7
CC(=O)Nc1ccc(NS(=O)(=O)c2cc(Cl)ccc2Cl)cc1	-0.6	-5	-5	1.3	0.8	i	0.63
Cc1nc(SCc2nc3c(F)cccc3[nH]2)c2oc3ccccc3c2n1	3.0	-5	-2	5.5	5.1	i	0.7
COc1ccc(OC)c(NC(=O)COC(=O)c2n[nH]c3ccccc23)c1	4.6	-6	6	-0.5	-5.0	i	0.66
Cn1ncc([N+](=O)[O-])c1C(=O)Nc1ccccc1	-1.4	x	12	2.3	5.5	i	0.7
O=C(NC(=S)Nc1ccc(C(=O)N2CCOCC2)cc1)c1ccc([N+](=O)[O-])cc1	1.5	-19	-11	7.6	-2.2	x	0.69

A different layout for part of the listing above:
| Structure | HNF4A DNA FP | ALR inh | B2AR ag | UCH37 DUB inh | LANA-H2A inh | FGF22 binding | E coli growth |
| --- | --- | --- | --- | --- | --- | --- | --- |
| COc1ccc(Cl)cc1NC(=O)CN(C)C(=O)c1ccc(N2CCCCC2)c([N+](=O)[O-])c1 | 0.9 | 5 | 15 | 5.2 | 5.8 | i | 0.69 |
| Cc1cc2ncn(CS(C)(=O)=O)c2cc1C | 0.2 | -7 | 0 | -0.3 | 3.1 | i | 0.66 |
| COc1ccc(S(=O)(=O)Nc2ccc(-c3ccc4nncn4n3)cc2)c(OC)c1 | 1.8 | -3 | -1 | 2.1 | -1.5 | i | 0.66 |
| CCCCc1nc2ccccc2c(NC(=O)CNC(C)(C)C)c1CCC | 2.3 | -9 | -7 | 0.3 | 0.7 | x | 0.73 |
| O=C(N/N=C/c1ccccc1O)C(=O)N1CCCCCC1 | -0.8 | 8 | 3 | x | 1.8 | i | x |
| COc1ccccc1Cn1c(=S)[nH]c2cc(C(=O)NCc3cccnc3)ccc2c1=O | 5.1 | x | 7 | 3.6 | x | i | 0.69 |
| O=C(N/N=C/c1cccs1)c1[nH]ncc1Br | 1.6 | -9 | -7 | x | -0.5 | i | x |
| O=C(COc1coc(CN2CCN(c3ccc(F)cc3)CC2)cc1=O)NCC1CCCO1 (centres undefined) | 1.4 | 58 | -1 | 2.9 | -2.6 | i | 0.63 |
| COc1cc(/C=N/NC(=Nc2ccc(C)cc2)c2nc3ccccc3s2)ccc1O | -0.8 | 68 | -23 | x | -7.1 | x | x |
| COc1cc2c(cc1OC)CN(C(=O)c1cc(S(=O)(=O)N3CCOCC3)ccc1Cl)CC2 | 1.2 | -23 | 7 | 0.2 | -1.4 | x | 0.71 |
| O=C(O)c1cccc(NC(=O)c2ccc3c(c2)C(=O)N(Cc2ccco2)C3=O)c1 | -9.5 | 3 | 6 | x | 0.0 | x | x |
| CCOC(CC(=O)NNC(=O)c1c(-c2ccccc2Cl)noc1C)OCC | 5.3 | -12 | -3 | 2.6 | -5.4 | i | 0.63 |
| COc1cc(C(=O)Nc2cccc(C)c2C)c(Br)c(OC)c1OC | -3.7 | -1 | -11 | 1.6 | -2.1 | i | 0.7 |
| CC(=O)Nc1ccc(NS(=O)(=O)c2cc(Cl)ccc2Cl)cc1 | -0.6 | -5 | -5 | 1.3 | 0.8 | i | 0.63 |
| Cc1nc(SCc2nc3c(F)cccc3[nH]2)c2oc3ccccc3c2n1 | 3.0 | -5 | -2 | 5.5 | 5.1 | i | 0.7 |

Remaining list, next part
SMILES	HNF4A DNA FP	ALR inh	B2AR ag	UCH37 DUB inh	LANA-H2A inh	FGF22 binding	E coli growth
COc1ccc(S(=O)(=O)N2CCOC23CCN(S(=O)(=O)c2cc(C)ccc2OC)CC3)cc1	-0.9	-4	6	-0.6	-0.7	i	0.7
COC(=O)c1sc(-c2ccc(C(C)(C)C)cc2)cc1NC(=O)c1ccccc1C(=O)O	-5.6	92*	14	4.5	0.0	i	0.65
CC1CCC(NC(=O)c2cccc(S(=O)(=O)N3CCN(c4ccccc4)CC3)c2)CC1 (centres undefined)	-0.9	4	-3	1.1	-6.7	i	0.7
CCN(CC)CCSc1nnc2c3ccccc3n(Cc3ccccc3)c2n1	-2.9	14	-8	8.0	0.9	i	0.67
CS(=O)(=O)N1N=C(c2ccco2)CC1c1ccco1 (centres undefined)	5.5	-6	-29	0.3	1.1	i	0.67
